# VDR inhibitor: vitamin D3 receptor (human) inhibition; VDR-SRC2-3 peptide fluorescence polarization, 2 h; Potency, µM, for inactives: max response, negative = inhibition, hits mostly inhibitors; hit rate 0.93% among 400,000; AID 504847; active = well fitted inhibition curve with a large enough effect; inconclusive = small, poorly fitted or top-dose-only effect, or another doubt; inactive = no such curve, though single readings can be large or run the other way; also: series mostly up to about 120 µM
# Target sequence (P11473 whole entry, looked up): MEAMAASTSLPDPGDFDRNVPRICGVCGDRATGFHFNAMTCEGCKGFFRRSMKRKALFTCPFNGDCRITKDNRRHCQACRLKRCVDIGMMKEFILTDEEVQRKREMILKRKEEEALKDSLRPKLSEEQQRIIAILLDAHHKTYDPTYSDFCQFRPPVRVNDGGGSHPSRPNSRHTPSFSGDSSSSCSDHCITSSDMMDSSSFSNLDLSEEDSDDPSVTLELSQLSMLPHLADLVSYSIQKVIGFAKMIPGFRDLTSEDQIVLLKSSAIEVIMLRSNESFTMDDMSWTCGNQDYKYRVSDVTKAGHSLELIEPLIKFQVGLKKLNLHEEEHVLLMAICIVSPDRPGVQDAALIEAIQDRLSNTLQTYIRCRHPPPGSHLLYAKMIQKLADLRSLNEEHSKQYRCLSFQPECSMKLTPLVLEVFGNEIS
#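 Two reagent solutions held at 4 deg C in the dark were dispensed, compounds pinned at 23 nl, and the mixture incubated 2 h at room temperature. Read-out: fluorescence polarization of VDR–SRC2-3 peptide binding.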
# * = called active by the depositor; ? = inconclusive; & = joins results of further samples. % is scaled to controls: 0 for no effect and ±100 for the full control effect; potency is read from the fitted curve at half-maximal effect. Some of the compounds tested; count on the stated rates, not on these rows.
VDR inhibitor	smiles
79.4µM*	CCC/C(O)=C1\C(=O)CC(C)(C)CC1=Nc1ccccc1O
-5.9%	Cc1ccc(N(CC(O)CN2C(=O)NC(C)(C)C2=O)S(=O)(=O)c2ccc(C)cc2)cc1 (stereo not drawn)
-16.2%	Cc1ccc(/C=N/NC(=O)C(C)Oc2cccc3ccccc23)o1 (stereo not drawn)
-26.9%	CSc1nc2ccc(NS(=O)(=O)c3ccc(Br)s3)cc2s1
-4.2%	NCCCC[C@H]1CN=C(N)N1CCC12CC3CC(CC(C3)C1)C2
-18.5%	COc1ccc(-c2nn(-c3ccccc3)cc2/C=N/Nc2ccc(Cl)c(C(=O)O)c2)cc1OC
-23.6%	COC(=O)c1sc2[nH]c(=S)n(N)c(=O)c2c1C
8.5%	COc1ccc(-n2c(Cc3cc(=O)[nH]c(=O)[nH]3)nnc2SCC(=O)Nc2cc(C(F)(F)F)ccc2Cl)cc1
-2.9%	CCOc1ccc(CCNC(=O)CN2N=C(c3ccccc3)CCC2=O)cc1OCC
?	CCOC(=O)c1ccc(N=c2sc(C(=O)OC)cc(=O)n2Cc2ccco2)cc1
9.2%	CCOc1ccc(Cc2nnc(N)s2)cc1OCC
29.8%	COc1ccc(-n2cnnc2SCc2ncc(-c3ccccc3)o2)cc1
-2.9%	CCCS(=O)(=O)N1CCC(C(=O)NCCCN(CC)c2cccc(C)c2)CC1
10.5%	COc1ccccc1NC(=O)N1CCC(c2nnc(SCC(N)=O)n2C)CC1
-14.9%	Cn1c(C(=O)NCc2cccs2)cc2c(=O)n(C)c3ccccc3c21
-1.0%	CCc1noc(C)c1C(=O)Nc1nc(-c2ccc(NC(C)=O)cc2)cs1
9.3%	COc1ccc(N(C(=O)Cn2nnc3ccccc32)C(C(=O)NCc2ccco2)c2ccc(C)o2)cc1 (stereo not drawn)
6.2%	Cc1ccnc(NC(=O)CCC(=O)N(Cc2ccco2)C(C(=O)NC(C)C)c2ccc(F)cc2)c1 (stereo not drawn)
8.2%	O=C(CCn1c(=O)oc2ccccc21)NCCCN1CCOCC1
-14.6%	COc1ncc2nc(C)c(=O)n(Cc3cccs3)c2n1
-15.9%	O=C(Cc1ccc([N+](=O)[O-])cc1)Nc1ccc2c(c1)CCC2
-2.8%	O=c1cc(CSc2ncn[nH]2)[nH]c2c(Cl)cccc12
-12.2%	Cc1onc(-c2ccccc2)c1C(=O)Nc1ccc(Cl)c(S(=O)(=O)N2CCOCC2)c1
1.9%	COc1cc(OC)c2c(C)cc(=O)oc2c1C(CCN1CCCC(C)C1)c1ccc(N(C)C)cc1 (stereo not drawn)
-0.5%	COc1ccc(CNc2nc(-c3ccc(Cl)cc3)nn2S(=O)(=O)c2ccc(C)cc2)cc1
1.8%	CCc1ccc(OCCSc2nc3ccccc3n2CC(=O)N2CCCCC2)cc1
13.2%	CCOc1ccc(C2/C(=C(\O)c3ccc4c(c3)OCCO4)C(=O)C(=O)N2Cc2cccnc2)cc1OCC (stereo not drawn)
10.7%	CC(=O)c1ccc(N2CCN(S(=O)(=O)c3ccccc3)CC2)c(F)c1
-1.3%	Cc1ccc(NC(=O)c2nn(C34CC5CC(CC(C5)C3)C4)cc2[N+](=O)[O-])cc1
5.5%&-1.1%&-4.8%&-14.2%	O=S(=O)(c1ccc(Cl)cc1)N1CCN(c2nc(-c3cccs3)nc3ccccc23)CC1
-1.6%	COc1cccc(CNC(=O)Cn2c(=O)n(CCC(=O)N3CCCCC3)c(=O)c3sccc32)c1
-15.6%	COc1ccc(-c2c(NC(=O)c3ccco3)oc3c(C)cccc3c2=O)cc1
5.0%	COc1cc(NC(=O)Cn2nnnc2-c2ccccc2F)cc(OC)c1OC
-13.6%	CCOc1ccccc1NC(=O)COC(=O)CN1C(=O)NC(C)(C)C1=O
-6.8%	Cc1ncsc1C(=O)O
-13.0%	COc1ccc(OC)c(NC(=O)COC(=O)CCS(=O)(=O)c2ccc(Cl)cc2)c1
-9.9%	COc1ccc(-c2cc(C(F)(F)F)nc(SCC(=O)N(C)Cc3ccccc3)n2)cc1OC
9.7%	C=CCNC(=O)CNS(=O)(=O)c1ccc(F)cc1
7.8%	O=C(O)CSc1ccccc1C(=O)O
5.4%	COc1ccc(CCN2CC(C(=O)N(C)CC(=O)Nc3ccc(Cl)c(C(F)(F)F)c3)CC2=O)cc1OC (stereo not drawn)
-7.7%	COc1cc(NC(=O)CN2C(=O)C(c3ccccc3)=NC23CCCCCC3)cc(OC)c1
1.3%	CCc1ccc(CN2CCC(C(=O)Nc3ccc(-n4nc(C)cc4C)cc3)CC2)o1
-11.3%	CC(C)c1ccc(C2=C(O)c3ccccc3C(=O)C2=O)cc1
-12.7%	COc1ccc(S(=O)(=O)N2CCN(c3ncccn3)CC2)cc1[N+](=O)[O-]
-13.2%	Fc1ccccc1N1CCN(CC2CCCCC2)CC1
9.5%	COc1cc2ccccc2cc1C(=O)Nc1cc(C)ccn1
7.0%	COc1cc(CCC(=O)Oc2ccc(C(C)=O)cc2)cc(OC)c1OC
-9.3%	FC(F)(F)c1cc(CO[C@H]2CCCN[C@H]2c2ccccc2)cc(C(F)(F)F)c1
-8.6%	O=C(Cn1c(=O)n(-c2ccccc2)c(=O)c2sc3ccccc3c21)NC1CCCC1
7.2%	O=C(NCCCN1CCN(c2ccc(F)cc2)CC1)c1cc2c(s1)-c1ccccc1OC2

# Rewritten as labelled records: entries from further up.
C=CCNC(=O)CNS(=O)(=O)c1ccc(F)cc1
  VDR inhibitor = 9.7%

COc1ccc(-c2c(NC(=O)c3ccco3)oc3c(C)cccc3c2=O)cc1
  VDR inhibitor = -15.6%

CCOc1ccccc1NC(=O)COC(=O)CN1C(=O)NC(C)(C)C1=O
  VDR inhibitor = -13.6%

O=C(Cn1c(=O)n(-c2ccccc2)c(=O)c2sc3ccccc3c21)NC1CCCC1
  VDR inhibitor = -8.6%

# (next part)
VDR inhibitor	smiles
5.4%	CN(c1nnc(NC(=O)Nc2ccccc2C(F)(F)F)s1)C1CCCCC1
?	Oc1ccc(Br)cc1C1C=C(c2ccc3c(c2)OCO3)NC(c2cccc(F)c2)N1 (stereo not drawn)
1.9%	CN(CCN1CCOCC1)Cc1nc(-c2ccccc2)no1
5.2%	Cc1cc(=O)c(C(=O)OC(C)C(=O)NC(N)=O)nn1-c1ccc(Cl)cc1 (stereo not drawn)
1.0%	Cc1ccc(-c2cn3cccnc3n2)cc1NC(=O)c1cccs1
-1.1%	CCOC(=O)N1CCC(N(CCN(C)C)C(=S)Nc2ccccc2Cl)CC1
-1.9%	CCOC(=O)c1ccoc1CN1CCN(S(=O)(=O)c2ccc(C)c(C)c2)CC1
3.5%	Cc1nnc(SCC(=O)N2CCN(S(=O)(=O)c3ccccc3)CC2)s1
-10.4%	CCOC(=O)N1CCN(C(=O)/C(=C\c2cccs2)NC(=O)c2cccs2)CC1
8.8%	CC(C)(C)c1ccc(-c2n[nH]c(=S)n2-c2ccccc2)cc1
-12.2%	CC1CCN(c2nc3nonc3nc2N2CCC(C)CC2)CC1
8.0%	O=C1NC[C@@H](Cc2cccc3ccccc23)N(CC2(c3ccccc3)CC2)C1=O
-1.1%	COCc1cc(C)nc(SCC[N+](C)(C)CC(=O)Nc2ccccc2)c1C#N
-1.6%	Cc1cccc(C(=O)N/N=C/c2ccncc2)c1
-3.0%	O=C(Nc1nnc(-c2ccc(F)cc2)o1)c1cccc([N+](=O)[O-])c1
-1.9%	FC(F)(F)c1ccc(CN2CCCCCC2)cc1
17.0%	CCOC(=O)Cc1csc(NC(=O)COc2ccc(N(C)S(=O)(=O)c3ccc(C)cc3)cc2)n1
5.9%	CC1=C(C(=O)NCc2ccccc2Cl)C2(CCCCCC2)OC1=O
-19.3%	CC(=O)C1=C(O)C(=O)N(c2ccc(Br)cc2)C1c1ccc([N+](=O)[O-])cc1 (stereo not drawn)
-3.4%	COC(=O)c1cc(S(=O)(=O)NC2CCN(Cc3ccccc3)CC2)cn1C
8.3%	O=C(Nc1ccccn1)c1ccc2c(c1)OCCO2
-20.9%	CCc1nnc(NC(=O)c2n[nH]c(=O)c3ccccc23)s1
2.7%	COc1ccc(C2/C=C\CN(C(=O)c3ccccc3)C(Cc3ccccc3)C(=O)N2Cc2ccc(F)cc2)cc1 (stereo not drawn)
12.5%	CCN(Cc1ccccc1)C(=O)c1ccc(CNS(=O)(=O)c2ccc(C)cc2)cc1
21.8%	Oc1ccc(Br)cc1-c1n[nH]c(=S)n1Cc1ccccc1

# 5 entries out of the list, arranged by SMILES length, rising.
VDR inhibitor	smiles
1.0%	Cc1ccc(-c2cn3cccnc3n2)cc1NC(=O)c1cccs1
-3.4%	COC(=O)c1cc(S(=O)(=O)NC2CCN(Cc3ccccc3)CC2)cn1C
5.2%	Cc1cc(=O)c(C(=O)OC(C)C(=O)NC(N)=O)nn1-c1ccc(Cl)cc1 (stereo not drawn)
8.0%	O=C1NC[C@@H](Cc2cccc3ccccc23)N(CC2(c3ccccc3)CC2)C1=O
2.7%	COc1ccc(C2/C=C\CN(C(=O)c3ccccc3)C(Cc3ccccc3)C(=O)N2Cc2ccc(F)cc2)cc1 (stereo not drawn)

# Later entries
VDR inhibitor	smiles
4.4%	N#Cc1c(N)nc(SC2CCCCC2=O)c(C#N)c1-c1ccco1 (stereo not drawn)
-14.1%	O=C1Nc2ccccc2C1=Nc1ccc(S(=O)(=O)Nc2nccs2)cc1
-5.5%	O=C(NNc1ncccc1-n1cccc1)c1ccc(Cl)cc1
2.7%	Nc1nccc(NCCSCc2ccccc2)n1
-24.3%	O=C1CCCc2cc3c(ccc4ccccc43)cc21
-4.8%	C/C(N=Nc1nc2ccccc2s1)=N\Nc1ccccc1O
-13.3%	O=C(CC1C(=O)NCCN1Cc1ccoc1)NCc1cccc(OC(F)(F)F)c1 (stereo not drawn)
-2.4%	CCN(CC)c1ccc(/C=N/NC(=O)c2c(-c3ccccc3)noc2C)cc1
6.2%	COc1ccccc1-c1nnc(SCc2nc3ccccc3s2)n1C
-3.1%	CCOC(=O)c1c(C)[nH]c(C(=O)COC(=O)C2CC(=O)N(Cc3ccccc3)C2)c1C (stereo not drawn)
8.3%	Cc1ccc(/C(N)=N/OC(=O)CN(C)S(=O)(=O)c2ccc(C)cc2)cc1
-11.8%	CCOc1ccc(Cn2cc(F)c(=O)[nH]c2=O)cc1
-5.6%	Cc1ccc(C(=O)OCc2cc3ccccc3[nH]c2=O)cc1
-0.6%	Cc1ccc(C(=O)Nc2ccc(Nc3ccccc3)cc2)cc1C
-2.7%	Cc1ccc2cc(S(=O)(=O)NCCCN3CCOCC3)ccc2c1
9.2%	O=C(NCCCO)c1nc2ccccc2s1
-10.6%	COc1cccc(S(=O)(=O)NCc2ccc(C(=O)NCc3ccco3)cc2)c1
-2.1%	CN(C)CCCNC(=S)N(CCO)Cc1cc2cc3c(cc2[nH]c1=O)OCO3
-12.5%	COc1ccc(NC(=O)c2ccc(-n3cccn3)nc2)cc1
-9.1%	COc1ccc(N=Nc2ccc3ccccc3c2)c(O)c1
-9.0%	Cc1noc(C)c1COC(=O)c1cccc(S(=O)(=O)N2c3ccccc3CC2C)c1 (stereo not drawn)
-4.2%	CCOc1ccccc1NC(=O)Nc1nnc(N(C)Cc2ccccc2)s1
-22.8%	COc1ccc(C2(C(=O)Nc3ccc(S(=O)(=O)Nc4nc(C)cc(C)n4)cc3)CCCC2)cc1OC
-6.1%	CC(C)CCNC(=O)C1CCN(c2nc3ccccc3o2)CC1
-13.5%	CC(C(=O)O)N1C(=O)C2C3c4ccccc4C(c4ccccc43)[C@@H]2C1=O (stereo partly drawn)
3.4%	Cc1ccnc2nc(C(=O)OCC(=O)NCCc3ccc(Cl)cc3)nn12
8.1%	Cc1ccc2c(c1)CCCN2CC(=O)Nc1cccc(S(=O)(=O)N2CCCC2)c1
19.5%	O=C(CSc1nc(=O)n(Cc2ccco2)c2c1CCC2)NCc1ccccc1Cl
-16.4%	C#CC(C)OC(=O)C(C)NC(=O)c1ccccc1 (stereo not drawn)
-15.0%	c1ccc(-c2noc(CN3CCN(c4ccccc4)CC3)n2)cc1
-20.0%	Cc1ccc(-c2nc(CS(=O)CC(=O)NCCN3CCOCC3)c(C)o2)cc1 (stereo not drawn)
-1.1%	CCOC(=O)N1CCN(Cc2c(NC(=O)c3ccco3)sc(C)c2C)CC1
-21.1%	O=C1CCCC2=C1Sc1ccc(Cl)cc1N2
-17.8%	Cc1ccc(S(=O)(=O)N2CCCCC2)cc1NC(=O)CSc1nc(N)cc(=O)[nH]1
18.5%	O=C(Nc1c(Cl)ccc2nsnc12)c1ccco1
-2.3%	COc1ccc(NC2=C(C(C)=O)C(c3ccc(N(C)C)cc3)C(C(C)=O)C(C)(O)C2)cc1 (stereo not drawn)
-18.2%	COc1ccc(/C=N/NC(=O)CNc2c(Br)cc(C)cc2Br)c(C(=O)O)c1OC
12.4%	N#C/C(=C(/O)COC(=O)c1ccc(C#N)cc1)c1nc2ccccc2s1
20.0%	Cc1ccc(C(=O)c2cn(CC(=O)Nc3ccc(C(C)C)cc3)c3nc(C)ccc3c2=O)cc1
-4.8%	CN(CC(=O)Nc1sccc1C#N)C1CCCCC1
4.0%	CCNc1nc2c(c(=O)n(C)c(=O)n2C)n1CC(O)COc1ccccc1 (stereo not drawn)
2.3%	COCCNC(=O)C(c1ccc(C)cc1)N(C(=O)C(=O)NC1CCCC1)c1ccc2c(c1)OCCO2 (stereo not drawn)
-16.2%	CC(OC(=O)CCCOc1ccccc1)C(=O)Nc1ccc(Cl)cn1 (stereo not drawn)
-15.6%	Nc1nc(CN2CCN(C(=O)c3ccco3)CC2)nc(Nc2cccc(Cl)c2)n1
-6.5%	COc1cccc(Nc2ncc3nc(-c4cn(C)c5ccccc45)c(=O)n(CCC#N)c3n2)c1
-15.0%	O=C(NCc1ccncc1)Nc1ccc(F)cc1
3.9%	Cc1ccc(-c2nc3c4ccccc4n(CC(=O)NCc4ccc(F)cc4)c(=O)n3n2)cc1
-5.9%	CN1CCc2c(n(CC(O)CN3C(=O)c4ccccc4S3(=O)=O)c3ccccc23)C1=O (stereo not drawn)
-7.5%	CC(C)(C)SCCNC(=O)/C=C/c1ccccc1
